Compound activity: PubChem BioAssay, ICCB-Longwood Screening Facility, Harvard Medical School
HCMV NEC inh = cytomegalovirus nuclear egress complex inhibition. inhibition, % (no concentration beside the values). HTRF UL50-UL53 interaction, normalized percent inhibition. hit rate 0.15% among 190,000;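 active = both replicates at 50% or more, plus weaker picks with an unusually low signal ratio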;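 note: stock transfer was 100 nL into about 20 µL; 0% = negative control wells and 100% = wells with untagged competitor protein; inactives centre near -12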
GIV-Gai inh = GIV-Galpha-i interaction inhibition | Galpha-i3/FITC-GIV peptide fluorescence polarization, 90 min; hits give low values; scaled: aluminum fluoride 0%, vehicle 100% | percent of control (FP), % (concentration not given with the values) | hit rate 0.42% among 210,000 | AID 1224905;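 active = replicate mean at 85% of control or lower, very high polarization wells dropped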;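 note: wells of about 15 µL received 100 nL stock; the first replicate is given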
Target sequence (P08753 whole entry, looked up): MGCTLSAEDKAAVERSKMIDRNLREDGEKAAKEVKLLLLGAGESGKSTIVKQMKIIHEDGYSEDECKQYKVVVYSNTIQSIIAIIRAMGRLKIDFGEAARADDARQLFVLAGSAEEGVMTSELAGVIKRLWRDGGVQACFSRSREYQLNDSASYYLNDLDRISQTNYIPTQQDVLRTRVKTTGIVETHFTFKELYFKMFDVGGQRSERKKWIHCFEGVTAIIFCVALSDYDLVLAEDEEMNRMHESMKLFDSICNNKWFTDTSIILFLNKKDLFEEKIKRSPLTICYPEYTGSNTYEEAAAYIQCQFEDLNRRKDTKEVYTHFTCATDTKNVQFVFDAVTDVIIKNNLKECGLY
Sa growth 42C = inhibitors of Staphylococcus aureus growth at 42 °C; relative growth, % (concentration not given with the values); AID 720641; hit rate 0.53% among 170,000; S. aureus RN4220 growth, OD600, 20 h; hits give low values;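 active = growth at 42 °C up to 50% and 20 or more points under that at 30 °C, or under 10% at both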;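 note: 300 nL library stock went into each well; scaled to the means of positive and negative controls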
Sa growth 42C second temp = recorded beside Sa growth 42C, whose call it bears; relative growth, %; measured here: growth at 30 °C;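 optical density after 20 h as mean of two plates; 100% = untreated growth and lower means inhibition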
* = called active by the depositor; nt = no result given; & = joins results of further samples.

SMILES | HCMV NEC inh | GIV-Gai inh | Sa growth 42C | Sa growth 42C second temp
COc1cccc(-c2cc(C#N)on2)c1OC | 3 | 102 | 92 | 81
Cc1ccccc1NC(=O)/C=N/O | -20 | nt | 105 | 80
Cn1cc(Cc2nnc(NC(=O)CCn3c(C4CCCCC4)nc4ccccc43)s2)c2ccccc21 | -6 | 101 | nt | nt
CCN(CC(=O)Nc1ccc(N2CCOCC2)cc1)C(=O)c1nc2nccc(C)n2n1 | -6 | nt | 97 | 99
Cc1ccc(-c2c(N3CCOCC3)c(=O)c2=O)cc1 | -74 | 117 | nt | nt
CCCC(=O)N1CCN(c2nc3c(OC)ccc(C)c3s2)CC1 | nt | 95 | 79 | 80
COc1ccc(CN=Cc2ccc(NC(C)=O)cc2)cc1 | -22 | 103 | 85 | 88
Cc1ccc2[nH]c3c(=O)n(CC(C)c4ccccc4)cnc3c2c1 (configuration not stated) | -2 | 101 | nt | nt
CN1CCCN(C(=O)/C=C/c2ccc(Cl)cc2Cl)CC1 | -73 | nt | 93 | 88
CCN(Cc1ccccc1)Cc1c(O)ccc2c(=O)c(-c3ccc(Cl)cc3)c(C(F)(F)F)oc12 | 2 | 100 | 100 | 91
CCOc1cc(C)c2c(=O)c(-c3ccccn3)c(C)oc2c1 | 17 | nt | 111 | 97
O=C(NCCCN1CCc2ccccc2C1)c1ccc(CS(=O)(=O)c2ccc(Br)cc2)o1 | -4 | 100 | 98 | 83
CCOC(=O)CSc1nc2cc3c(cc2c(=O)n1CCCCCC(=O)NCc1ccc(OC)cc1)OCO3 | nt | 106 | 95 | 87
COc1ccc(OC)c(NC(=O)N2CCN(c3cc(N4CCOCC4)nc(C)n3)CC2)c1 | -15 | 99 | nt | nt
O=C(OCC(=O)N1CCCc2ccccc21)C1COc2ccccc2O1 (configuration not stated) | -22 | nt | 97 | 90
CCOC(=O)c1ccc(NC(=O)C2C(=O)N(C)C3(C)CC2c2ccccc2O3)cc1 (configuration not stated) | nt | 102 | 89 | 74
O=C1CSC(c2ccc3c(c2)OCO3)N1c1ccc(Cl)cc1 (configuration not stated) | 9 | 107 | 105 | 93
CCOC(=O)c1c(C)[nH]c(C)c1S(=O)(=O)N1CCN(c2ccccc2OC)CC1 | nt | 96 | 101 | 99
COC(=O)c1ccc(N2CCCC2=O)cc1 | -5 | 96 | 105 | 75
O=C(COC(=O)CCN1C(=O)C2CC=CCC2C1=O)Nc1cc(Cl)cc(Cl)c1 (configuration not stated) | -6 | nt | 104 | 98
COc1ccc(Cl)cc1NC(=O)c1nc2nc(-c3ccccc3)cc(C(F)(F)F)n2n1 | nt | 103 | 115 | 87
Cc1cccc(-c2nc(CSc3nc4ccncc4[nH]3)c(C)o2)c1 | 2 | 100 | 101 | 77
O=C(Nc1ccccc1Cl)C1Sc2nnc(-c3ccccc3)n2NC12CCCCC2 (configuration not stated) | -15 | 103 | nt | nt
COc1ccc(-c2cc(C(F)(F)F)nc(NCc3ccccc3)n2)cc1 | -6 | 102 | 98 | 89
Cc1ccccc1OCCSc1nc(C(C)C)cc(=O)[nH]1 | -23 | 100 | 91 | 78
CC(=O)Nc1ccc(S(=O)(=O)N2CCN(c3cc(N4CCCC4)nc(C)n3)CC2)cc1 | -24 | 98 | nt | nt
COC(=O)c1cnn(-c2ccc(C(=O)Nc3cccc(C(C)=O)c3)cc2)c1N | nt | 100 | 120 | 82
O=C1c2cccc(OCC(=O)N3CCCc4ccccc43)c2CCN1Cc1cccnc1 | -14 | 102 | 94 | 74
O=C(OCc1cccc(COC(=O)c2ccc(Cl)cc2)n1)c1ccc(Cl)cc1 | nt | 106 | 107 | 99
COc1ccc(-c2cn3c(C)c(C(=O)N4CCCc5ccccc54)sc3n2)cc1 | -44 | 101 | 92 | 78
COc1ccc(NC(=O)C2CCN(S(=O)(=O)c3c(C)[nH]c(C)c3C(=O)N3CCCC3)CC2)cc1 | 9 | 98 | nt | nt
CCNC(=S)N1CCCCC1CO (configuration not stated) | -2 | 101 | 99 | 101
CCc1ccc(NC(=O)CN(c2ccccc2)S(=O)(=O)N(C)C)cc1 | -12 | 103 | 101 | 100
COc1ccc(C(=O)CC2(O)C(=O)N(CCc3ccccc3)c3ccc(Br)cc32)cc1OC (configuration not stated) | -30 | 102 | 109 | 77
CCCOc1ccc(/C=N/NC(=O)CN2CCCCC2)cc1 | 1 | 102 | 103 | 101
COc1ccc(N)cn1 | -26 | nt | 95 | 97
Cc1ccc2cc3c(N)[nH]nc3nc2c1 | -119 | 109 | 91 | 95
Cc1cccc(-n2ccnc2SCC(=O)N2CCN(C(=O)C3COc4ccccc4O3)CC2)c1 (configuration not stated) | -6 | nt | 106 | 94
CCOc1ccc(NC(=O)CSC2=Nc3ccccc3C3=NC(CC(=O)NCc4ccc5c(c4)OCO5)C(=O)N23)cc1 (configuration not stated) | nt | 101 | 85 | 96
COc1ccccc1NC(=O)c1sc2ncnc(N3CCN(C)CC3)c2c1C | -50 | 105 | nt | nt
CC(=O)Nc1ccc2c(c1)nc(C)n2C | -8 | nt | 115 | 83
Cc1cc(N)n(C(C)(C)C)n1 | 13&-21 | 102 | 109&96 | 101&96
COc1ccc(N2CCN(CCCNC(=O)Nc3ccccc3Cl)CC2)cc1 | 3 | 105 | 102 | 92
CC1CCCCC1NC(=O)CSc1nnc(-c2ccccc2Br)o1 (configuration not stated) | -8 | nt | 119 | 82
O=C(CSc1ccc(Cl)cc1)Nc1cccc(-c2nc3ncccc3o2)c1 | 4 | 105 | 99 | 84
Cc1cccc(N2CCN(S(=O)(=O)c3ccc4oc(=O)c5ncn(C)c5c4c3)CC2)c1C | -7 | 105 | 105 | 90
CCOc1ccc2nc(Cl)c(CN(Cc3ccco3)C(=O)c3ccco3)cc2c1 | 1 | 105 | 96 | 107
CC(C)(C)c1cc2nc3c(c(=O)n2[nH]1)CN(C1CCCCC1)C3=O | -12 | 98 | 88 | 86
COc1ccc(Nc2c(-c3ccco3)nc3cccc(C)n23)cc1 | -24 | 103 | 108 | 83
CC1(C)C2CCC1(CS(=O)(=O)NC1CCCC1)C(=O)C2 (configuration not stated) | -1 | nt | 94 | 99
(more compounds)
SMILES | HCMV NEC inh | GIV-Gai inh | Sa growth 42C | Sa growth 42C second temp
CCOc1ccc(N(CC)C(=O)CCc2nc(-c3ccccc3F)no2)cc1 | 2 | 101 | 112 | 87
Cc1cccc(OCC(=O)NCC(C)C)c1C | -3 | 100 | 106 | 102
COCCN1C(=O)c2oc3ccc(C)cc3c(=O)c2C1c1ccc(C(=O)OC)cc1 (configuration not stated) | -14 | 107 | 83 | 94
COc1ccc(OC)c(C(=O)Nc2ccc(F)c(Cl)c2)c1 | -10 | 103 | 109 | 88
O=c1c(-c2ccc(Cl)cc2)c(N2CCCCC2)c1=O | -74 | 108 | nt | nt
O=C(O)CCc1ccc(Br)cc1 | -25 | nt | 85 | 97
CC(C)OC(=O)c1cc2ccsc2n1CC(=O)Nc1cc(F)ccc1F | -9 | 103 | nt | nt
CCN(CC)C(=O)COc1ccc2c(c1)C(=O)CC(C)(C)O2 | nt | 103 | 96 | 94
O=C(NCc1ccccc1)c1cccc(OCC(=O)N2CCOCC2)c1 | -5 | nt | 102 | 97
Nc1sc2c(c1C(=O)N1CCOCC1)CCCC2 | -9 | nt | 98 | 93
CN(Cc1ccccc1)c1nnnn1-c1ccccc1 | 8 | nt | 88 | 99
CN(C(=O)c1ccc2c(c1)N(Cc1cccc(Cl)c1)C(=O)c1ccccc1S2(=O)=O)C1CCCCC1 | nt | 97 | 127 | 94
CCc1cccc(C)c1NC1=NCCC(=O)S1 | -1 | 96 | 103 | 94
COC(=O)c1scc(C)c1NC(=O)C(C)Sc1nc(C)cc(C)c1C#N (configuration not stated) | -17 | 96 | 89 | 85
CCOC(=O)c1c(-c2ccccc2)cn2c1SCC2=O | -15 | nt | 101 | 96
O=C(Cn1nc(-c2ccc(Cl)cc2)ccc1=O)NCc1ccccc1Cl | nt | 97 | 82 | 84
Cc1sc(-c2ccno2)cc1S(=O)(=O)Nc1ccc(S(N)(=O)=O)cc1 | -33 | 108 | nt | nt
CCC(C)NC(=O)COc1cc(=O)n(C)c2ccccc12 (configuration not stated) | -21 | 104 | 84 | 92
CCOC(=O)c1cccc(NC(=O)Cn2ncc3c(=O)oc4ccccc4c32)c1 | -12 | 104 | 114 | 98
Clc1ccc(Sc2nc(-c3cccs3)ns2)cc1 | -8 | 100 | 108 | 97
Cc1cccc(CNC(=O)Cn2ccc3cc(S(=O)(=O)N4CCCCCC4)ccc32)c1 | nt | 108 | 108 | 95
CCc1c(C#N)c(N)nc2sc(C(=O)OCc3ccccc3)c(N)c12 | 6 | 105 | 96 | 81
CCOc1ccc(C(=O)Nc2cccc(NC(=O)c3ccc(C(C)(C)C)cc3)c2)cc1Br | -23 | 101 | 91 | 88
C=CCN1C(=O)NC(NC(=O)c2ccccc2)(C(F)(F)F)C1=O (configuration not stated) | -28 | 103 | 100 | 97
CCOc1ccc(N=c2scc(-c3ccc(S(=O)(=O)N4CCCCC4)cc3)n2CCCO)cc1 | -22 | 104 | 101 | 94
COc1ccccc1Nc1nc2c(S(=O)(=O)c3c(C)cc(C)cc3C)nnn2c2ccccc12 | nt | 111 | 102 | 84
Cc1ccc(C(=O)c2cnc3ccccc3c2N2CCCC2)cc1 | nt | 106 | 85 | 83
CCC1Cn2c(C(=O)N3CCCCC3)cc3cccc(c32)O1 (configuration not stated) | -14 | 107 | nt | nt
O=[N+]([O-])c1cc(CN2CCN(c3cccc(C(F)(F)F)c3)CC2)c(O)c2ncccc12 | 13 | 104 | nt | nt
CCC(C)NC(=O)C1CCC(CNS(=O)(=O)c2ccc(C)cc2)CC1 (configuration not stated) | -34 | 108 | 104 | 96
Oc1c(C=Nc2ccccc2)sc2ccccc12 | 1 | nt | 78 | 97
CC(=O)Nc1ccc(NC(=O)C2CCCN(S(=O)(=O)c3ccc4c(c3)CCCC(=O)N4)C2)cc1 (configuration not stated) | nt | 105 | 89 | 87
CC(C)(C)C(=O)CSc1nc(N)c(C#N)c(-c2cccs2)c1C#N | 60* | nt | 93 | 84
Nc1cc(Cl)c(NC2=NCCN2)c(Cl)c1 | -27 | 103 | nt | nt
Cc1ccc(-c2cc(C(=O)N3CCCCC3C)c3ccccc3n2)cc1 (configuration not stated) | -13 | nt | 81 | 90
Cc1cccc(C(=O)Nc2nc3ccc(C)cc3c(=O)[nH]2)c1 | -34 | 105 | 86 | 78
Cc1cc(C)c2sc(N3CCN(C(=O)C(C)(C)C)CC3)nc2c1 | -26 | 98 | 103 | 86
CN(CCC(=O)O)Cc1cccnc1 | -15 | 102 | 97 | 86
O=C(OCCC1(c2ccccc2)C(=O)c2ccccc2C1=O)c1cc2ccccc2oc1=O | -36 | nt | 99 | 77
CC1(C)CC(=O)c2cc(O)ccc2O1 | -43 | 103 | 104 | 91
Cc1nn2c(=O)cc(COc3ccc(/C=C(\C#N)C(=O)Nc4ccc(F)cc4)cc3)nc2s1 | -1 | 103 | 100 | 68
CCOc1ccc(NC(=O)c2cc3cc4ccc(C)cc4nc3o2)cc1 | -21 | 102 | 112 | 94
N#C/C=C/N1CCN(C(c2ccccc2)c2ccccc2)CC1 | -33 | nt | 104 | 86
CCn1c(CSc2ncnc3sccc23)nc2cc(S(=O)(=O)N(C)C)ccc21 | -32 | nt | 82 | 99
O=C(Nc1nnc(-c2ccccc2Cl)s1)c1ccc(S(=O)(=O)N2CCCCC2)cc1 | -12 | 104 | nt | nt
Cc1cc(=O)oc(C)c1C(=O)NCCCN1CCN(c2ccc(F)cc2)CC1 | 3 | 106 | 118 | 94
Cc1oc(C)c(C(N)=O)c1C(N)=O | 2 | 98 | 105 | 102
O=S(=O)(/C=C/c1ccccc1)Nc1ccc(F)cc1 | 19 | nt | 80 | 109
c1ccc(-c2noc(C3CCCO3)n2)nc1 (configuration not stated) | -12 | nt | 84 | 92
COc1ccc(NC(=O)Cn2c(=O)c3ccccc3n3nncc23)c(OC)c1 | -28 | 106 | 119 | 91
CCCCC(=O)Nc1ccc2c(c1)OCCO2 | -5 | 102 | 100 | 100
